Bioassay records: PubChem BioAssay, Fisher Drug Discovery Resource Center
NPYLR7 ag – mosquito NPYLR7 agonism | AID 1259423 | HEK293T NPYLR7/Galpha15, GCaMP6s calcium fluorescence | activation, % at 10 µM | actives 0.15% (n = 270,000); in the data active means activation above about 40%;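 further: 0% = vehicle and 100% = reference agonist at the receptor; some compounds past the cut are filed as inactive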
NPYLR7 ag max-min – second read-out of NPYLR7 ag, no call of its own (marks repeat the call); activation, %; measured here: Max-Min RFU normalised activation; some inactives read as strong as hits;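 span of the calcium signal over five minutes; 0% = vehicle and 100% = native peptide agonist; compound fluorescence can raise it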
Starred values were filed as active, the others as inactive; & = joins results of further samples.

The line under a structure holds: NPYLR7 ag | NPYLR7 ag max-min
#1 CCC(C)N(Cc1csc(COc2ccc(Cl)cc2)n1)C(=O)c1ccccc1C (centres undefined)
 : 5 | 2
#2 COc1ccc(C(=O)CSc2nc(N)c(NC(=O)c3ccc(OC)c(OC)c3)c(=O)[nH]2)cc1
 : -3 | 1
#3 O=C(Nc1cccc(Cl)c1)N1CCC2(CC1)SCCN2C(=O)c1ccc(F)cc1
 : -4 | 5
#4 OC(c1ccc(Cl)cc1)c1ncc(-c2cccc(F)c2)[nH]1 (centres undefined)
 : 1 | 1
#5 COc1cn(CC(=O)NC2CCCCC2)c(CN2CCCCCC2)cc1=O
 : 1 | 0
#6 Cc1nn(C)cc1CN1CCN(Cc2ccsc2)C(CCO)C1 (centres undefined)
 : 7 | 6
#7 O=C(O)CCc1nnc(SCc2ccccc2Cl)[nH]c1=O
 : 8 | 3
#8 CCOc1ccc(-c2ccnc(CC3CCN(C)CC3)n2)cc1C(=O)O
 : -1 | -6
#9 Cc1cc(C)c(CS(=O)(=O)c2nnc(C3CC3)n2CCC(N)=O)c(C)c1
 : 0 | 1
#10 CC1NC(=S)N(C2CCSc3c(F)cccc32)C1=O (centres undefined)
 : 11 | 5
#11 COC(=O)c1c(C)[nH]c(C(=O)CSc2nncs2)c1C
 : -4 | -6
#12 COc1cccc(OC)c1C(=O)NC1CCN(c2ccccc2C(=O)NC(C)c2ccccc2)CC1 (centres undefined)
 : -6 | -7
#13 CN(CCCNC(=O)C1CC=CCC1C(=O)N1CCc2c([nH]c3ccccc23)C1)c1ccccc1 (centres undefined)
 : -8 | -12
#14 COCCCN(Cc1cccn1C)CC(C)O (centres undefined)
 : 29 | 33
#15 Cn1c(C2CC2)nc2c1CCN(CCC(=O)N1CCOCC1)C2
 : 0 | -1
#16 CNC(=O)c1cc(Cl)c(OC(C)C)c(OC)c1
 : -6 | -9
#17 CSc1ccccc1C(=O)NCc1c(C)ncc2c1CCN(C(=O)CCc1ccccc1)C2
 : 20 | 7
#18 CC(C)C(NS(=O)(=O)c1cccs1)C(=O)O (centres undefined)
 : 5&0 | 7&7
#19 Cn1nc(C(=O)N2CCSCC2)c2c1CCC(NCC1(c3ccccc3)CCOCC1)C2 (centres undefined)
 : 18 | 4
#20 CN(C)c1cccc2c(C=C(C#N)C#N)ccc(N(C)C)c12
 : 2 | -2

Other structures follow.
The line under a structure holds: NPYLR7 ag | NPYLR7 ag max-min
#21 C=C(C)C(O)(C(=C)C)c1ccc(CN(Cc2cc(OC)cc(OC)c2)CC(C)C)o1
 : 0 | 10
#22 CCOC(=O)c1ccc(NC(=O)N2CCSC2c2ccc(C(C)(C)C)cc2)cc1 (centres undefined)
 : 0 | 2
#23 C=CCN1C(=O)NC(c2cccc(Oc3ccccc3)c2)C2=C1CN(CCc1ccccc1)C2=O (centres undefined)
 : 9 | 1
#24 O=C(c1c[nH]c(=O)c(Cl)c1)N1CCC(C(O)(c2ccccc2)c2ccccc2)CC1
 : -11 | -15
#25 Cc1csc(CN(C)C(=O)CCCn2nnnc2CN2CCc3ccccc3C2)n1
 : 2 | 1
#26 COc1ccccc1N1C(=O)c2ccc(-c3nc4cc(Cl)ccc4c(=O)o3)cc2C1=O
 : 4 | 13
#27 CC(=O)N1CCN(c2cc3c(cc2F)c(=O)c(C(=O)Nc2cccnc2)cn3C2CC2)CC1
 : 5 | 3
#28 COc1ccc(Cc2nnc(SCC(=O)Nc3cc(C)ccc3C)[nH]c2=O)cc1
 : -9 | -10
#29 CC1CN(c2ncnc3scc(-c4ccc(Cl)cc4)c23)CC(C)O1 (centres undefined)
 : 5 | 1
#30 O=C(NCCc1ccccn1)C(C1CCCC1)N1CCN(C(=O)C2CCC2)CC1 (centres undefined)
 : 7 | 4
#31 CCCOc1ccccc1OCC(=O)Nc1cc(C)on1
 : 1 | 12
#32 CCCOc1nn(CCC)cc1C(=O)Nc1nccs1
 : 0 | -11
#33 CCOC(=O)Cn1c(Cl)c(/C=N\NC(=O)c2ccccc2)sc1=O
 : -11 | -13
#34 CCOC(=O)C(N1CCCC1=O)n1cc(I)c(=O)[nH]c1=O (centres undefined)
 : -6 | -8
#35 CCC(CC)C(=O)N(CCN(C)C)Cc1cc(NC(=O)COC)ccc1N(C)C
 : 10 | 11
#36 CCOC(=O)C1CCN(C(=O)CCN(CC(C)C)c2nc(Cc3ccc(C)cc3)ns2)CC1
 : 4 | 11
#37 CC(C)Cc1cc(C(=O)NCC(c2cccnc2)N2CCCC2)n(C)n1 (centres undefined)
 : 2 | 1
#38 O=S(=O)(Cc1ccc(Cl)cc1Cl)c1ccc2c(c1)OCCO2
 : 1 | -1
#39 COc1ccc(-c2nc3cc(C)ccn3c2NC(=O)c2ccc(Cl)cc2Cl)cc1
 : -8 | -1
#40 CC#CCN1C(=O)NC(Cc2cccc(F)c2)(C2CCN(C(=O)CC3=CCCCC3)CC2)C1=O (centres undefined)
 : 6 | 2

Remaining list, next part
The line under a structure holds: NPYLR7 ag | NPYLR7 ag max-min
#41 CCCC(=O)OC1C(=O)Nc2cc(Br)ccc21 (centres undefined)
 : -2 | 20
#42 CCC(=O)C(C#N)c1nnc(-c2ccccc2)s1 (centres undefined)
 : 8 | 6
#43 CC(NC(=O)C(C)N1CCN(C)CC1C)c1cc2ccccc2o1 (centres undefined)
 : 5 | 5
#44 CC(C)(C)CC(=O)N1CCCC1C(=O)NC1CCN(C2CCOC2)CC1 (centres undefined)
 : 7 | 5
#45 Cc1nn(Cc2ccc(F)cc2)c2sc(C(=O)NCCCN3CCCC3=O)cc12
 : 8 | 9
#46 Cc1nc(C(C)C)ncc1C(=O)N1CCc2c(nc(N(C)C)[nH]c2=O)C1
 : 23 | 11
#47 Fc1ccccc1Oc1cc(C(F)(F)F)nc(SCc2cccc(Cl)c2)n1
 : 5 | 21
#48 CCN(C)C(=O)c1ccc2c(c1)c(C)c(C)n2CCOC
 : 4 | 3
#49 CCOC(=O)c1ccc2c(c1)nc(SCc1c(F)ccc(F)c1Cl)n2CCOC
 : 0 | -6
#50 Cc1cc(C)n(-c2ccc(NC(=O)C3CCN(CC(C)c4ccccc4)CC3)cc2)n1 (centres undefined)
 : 2 | 0
#51 Cc1noc(C)c1C(=O)N1CCC(c2cn(C)c3ccccc23)CC1
 : -2 | -10
#52 CCCC(C)C1C(C#N)C(=N)SC(=N)C1C#N (centres undefined)
 : 5 | 3
#53 Cc1cc(CSc2nnc3cc(C)c4ccccc4n23)no1
 : 1 | 2
#54 Cc1ccc(C)c(-n2cc(CN(C)C3CCOCC3)c(-c3ccccc3)n2)c1
 : -6 | -8
#55 CC(C)CN1C(=O)N(CCc2ccccc2)C2(CCN(Cc3cc(F)ccc3F)CC2)C1=O
 : 13 | 4
#56 CN1OC(C)(CC(=O)NCc2nccs2)N=C1c1ccccc1 (centres undefined)
 : 9 | 7
#57 O=C1CC2(C(=O)N1CCOc1ccccc1)C(=O)N(Cc1ccccc1)c1ccccc12 (centres undefined)
 : 5 | -6
#58 Cc1[nH]c2c(c1C(=O)NCCOc1ccccc1F)C(=O)CCC2
 : 7 | 2
#59 CNC(=O)[C@@H]1C[C@H](N)CN1C(=O)Cc1c(C)nn(-c2ccccc2)c1C
 : 8 | 7
#60 Cc1ccc(C2([N+](=O)[O-])C(=O)c3ccccc3C2=O)cc1
 : -9 | -14

Next entries follow:
The line under a structure holds: NPYLR7 ag | NPYLR7 ag max-min
#61 Cc1ccc(F)c(S(=O)(=O)NC(=O)C2(C)CCN2C(=O)c2ccc(C(C)(C)C)cc2)c1 (centres undefined)
 : 1 | 3
#62 CC(c1ccon1)N(C)C(=O)c1cccc(OC2CCN(C(=O)C3CC3)CC2)c1 (centres undefined)
 : 6 | 1
#63 CCc1cccc2c(C(CC(=O)NC3CCCCC3)c3ccccc3Cl)c[nH]c12 (centres undefined)
 : -5 | 5
#64 C=CCSC(C)C(=O)N1CCCN(C2CCCC2)CC1 (centres undefined)
 : -4 | 0
#65 Cc1cc(Cl)cc(Cl)c1CNC(=O)CC1C(=O)NCCN1CC(C)C (centres undefined)
 : 5 | 2
#66 O=C(OCC(=O)N1CCN(C(=O)c2ccco2)CC1)c1ccccc1F
 : 8 | 5
#67 Cc1c(C(=O)NCc2ccco2)nnn1-c1ccc2noc(-c3ccc(Cl)cc3)c2c1
 : 4 | 4
#68 CC(C)CCn1c(N2CCNCC2)nc2c1c(=O)[nH]c(=O)n2C
 : 0 | 9
#69 O=C(NC(C(=O)N1CCOCC1)C1CCN(C(=O)CCc2ccccc2)CC1)c1ccc2c(c1)OCO2 (centres undefined)
 : 16 | 16
#70 COc1cccc(COc2c[nH]c(C(=O)Nc3ccc4c(c3)OCO4)cc2=O)c1
 : 4 | 2
#71 C=CCN1C(=O)NC(c2ccccc2C(F)(F)F)C2=C1CN(C(Cc1ccccc1)C(=O)Nc1cc(C)cc(C)c1)C2=O (centres undefined)
 : 3 | 19
#72 C=CCN1C(=N)S/C(=C\c2cc(OCC)c(OC(C)C)cc2Br)C1=O
 : -13 | -19
#73 NC(N)=NC(N)=Nc1cccc(Cl)c1
 : -1 | -29
#74 Cc1ccc2oc(-c3ccc(OS(C)(=O)=O)c(CN4CCOCC4)c3)nc2c1
 : 15 | 17
#75 Cc1nc2ccc(C(=O)NCc3ccc(N(C)C)cc3)cn2c1N(C)C=O
 : 15 | 14
#76 COc1ccc(N2CCN(c3cc(C(=O)NCC(C)(C)CN(C)C)c4ccccc4n3)CC2)cc1
 : 4 | 1
#77 c1coc(-c2ncc(CN3CCN(c4ncnc5ccccc45)CC3)cn2)c1
 : 3 | 20
#78 CNc1nc2c(C)cccn2c(=O)c1C=Nc1ccc(Cl)cc1
 : -3 | -5
#79 Cc1nc(CN2CCCC(N(C)C3CCOC3=O)C2)no1 (centres undefined)
 : 3 | 2
#80 CC(C)CN(CC(=O)N(CCc1ccccc1)Cc1ccco1)C(=O)c1ccc(-c2ccccc2)cc1
 : 6 | 3

Remaining list, next part:
The line under a structure holds: NPYLR7 ag | NPYLR7 ag max-min
#81 COc1ccccc1CN1CC(C(=O)NCCSC)CCC1=O (centres undefined)
 : 1 | -4
#82 Cc1ccn2c(=O)nc(SCC(=O)Nc3ccc(C(N)=O)cc3)nc2c1
 : 2 | 1
#83 O=C(Cn1cc(C(F)(F)F)cc(Cl)c1=O)c1ccc(Cl)s1
 : 5 | 7
#84 O=C(COc1ccc(Cl)cc1)N1CCSC1c1ccc(F)cc1 (centres undefined)
 : -4 | -10
#85 Cc1ccc(-n2nc(C)c3c(-c4ccc(O)c(O)c4)c(C#N)c(N)nc32)cc1
 : 5 | 2
#86 CC(C)(C)C(=O)N1CCC(C(=O)Nc2ccc(Cl)c(-c3nnc4n3CCCCC4)c2)CC1
 : 5 | 3
#87 Cn1nc(C(=O)NCCc2cc(F)cc(F)c2)c(=O)c2ccccc21
 : 9 | 2

Entries shown so far with an aryl methoxy group (eleven):
The line under a structure holds: NPYLR7 ag | NPYLR7 ag max-min
#2 COc1ccc(C(=O)CSc2nc(N)c(NC(=O)c3ccc(OC)c(OC)c3)c(=O)[nH]2)cc1
 : -3 | 1
#5 COc1cn(CC(=O)NC2CCCCC2)c(CN2CCCCCC2)cc1=O
 : 1 | 0
#12 COc1cccc(OC)c1C(=O)NC1CCN(c2ccccc2C(=O)NC(C)c2ccccc2)CC1 (centres undefined)
 : -6 | -7
#16 CNC(=O)c1cc(Cl)c(OC(C)C)c(OC)c1
 : -6 | -9
#21 C=C(C)C(O)(C(=C)C)c1ccc(CN(Cc2cc(OC)cc(OC)c2)CC(C)C)o1
 : 0 | 10
#26 COc1ccccc1N1C(=O)c2ccc(-c3nc4cc(Cl)ccc4c(=O)o3)cc2C1=O
 : 4 | 13
#28 COc1ccc(Cc2nnc(SCC(=O)Nc3cc(C)ccc3C)[nH]c2=O)cc1
 : -9 | -10
#39 COc1ccc(-c2nc3cc(C)ccn3c2NC(=O)c2ccc(Cl)cc2Cl)cc1
 : -8 | -1
#70 COc1cccc(COc2c[nH]c(C(=O)Nc3ccc4c(c3)OCO4)cc2=O)c1
 : 4 | 2
#76 COc1ccc(N2CCN(c3cc(C(=O)NCC(C)(C)CN(C)C)c4ccccc4n3)CC2)cc1
 : 4 | 1
#81 COc1ccccc1CN1CC(C(=O)NCCSC)CCC1=O (centres undefined)
 : 1 | -4

Only part of the results is shown; the hit share may differ from the screen's.
